Screening data (PubChem BioAssay)
Sa ugtP lethal: growth inhibition of ugtP-null S. aureus, primary screen, RN4220 ugtP deletion, OD600; 16 h; some inactives read as strong as hits; growth inhibition, % (concentration not given with the values); hit rate 0.54% among 330,000; AID 1259309, 2017;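 active = z-score under -3 and OD600 up to 0.15 on both plates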;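 also: plate controls were untreated wells for no effect and antibiotic for full effect; wells of about 80 µL received 100 nL stock; the first replicate is given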
Mtb hypoxia inh: PubChem AID 1159583; M. tuberculosis hypoxia-regulated fluorescent reporter, fluorescence; fluorescence inhibition, % (concentration not given with the values); hit rate 0.1% among 300,000;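 active = 35 to 45% if threefold the growth effect, above 45% if 1.5-fold the growth effect; inactive = the rest, general growth blockers included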;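 also: wells of about 50 µL received 100 nL stock; 0% = vehicle wells and 100% = reference inhibitor wells; whole bacteria with a GFP reporter of the hypoxia response; strong numbers were not always called active; many hits fall short of the cut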
Sa RN4220 lethal: growth inhibition of S. aureus RN4220, primary screen, OD600; 16 h; inhibition, % (test concentration not listed); hit rate 0.33% among 330,000;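 active = z-score of -3 or lower and OD600 up to 0.18 on both plates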;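 also: plate controls were untreated cells for no effect and reference antibiotic for full effect; stock transfer was 100 nL into about 80 µL; one replicate is shown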
PrP 5UTR inh: inhibition of PrP 5' UTR reporter expression; hit rate 0.35% among 340,000; cell-based PrP 5' UTR mRNA reporter, plate reader; AID 488862, 2010; inhibition, % (test concentration not listed);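 active = every replicate at 50% or more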;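 also: 0 = median of the neutral control wells; tested in H4 reporter cells; numbers are from one replicate; inactives centre near -14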
Autofluor counter: flagged as autofluorescent in microsphere protease counterscreen | compound autofluorescence counterscreen, microsphere flow cytometry; hits give high values | AID 624483 | hit rate 3.1% among 360,000 | fluorescence intensity (test concentration not listed);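 active = at least 3 SD above the mean of all compounds, about 16000 in these data; inconclusive = too few beads counted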;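 also: 100 nL of 1 mM stock went into each well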
BJeLR lethal: MLPCN primary cell-based screen for lethality selective to Ras in HRASV12 cells; BJeLR (HRASV12) viability, CellTiter-Glo ATP luminescence, 48 h; reference of the scale not given here; inhibition, % (concentration not given with the values); hit rate 0.17% among 300,000; AID 1554, 2009;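 active = replicate mean above 50%; inconclusive = above 50% but judged a plate artefact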;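 also: 50 nL library stock added to about 25 µL; numbers are from one replicate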
Mtb hypoxia inh growth: recorded beside Mtb hypoxia inh, whose call it bears; growth inhibition, %; measured here: M. tuberculosis growth (absorbance);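 0% = vehicle and 100% = reference antibiotic; read after six days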
Active calls of the source: *; ? = inconclusive; . = not tested or not shown. Hits appear at their usual frequency; 4% or so of the library scored in one or more.

SMILES	Sa ugtP lethal	Mtb hypoxia inh	Mtb hypoxia inh growth	Sa RN4220 lethal	PrP 5UTR inh	Autofluor counter	BJeLR lethal
CCOCc1c(C(=O)NCc2ccccc2CN2CCCC2)oc2ccccc12	6	5	5	3.5	-8	?	.
Cc1ccc(SCC(=O)NC(=O)NC2CCCC2)c(C)c1	0	6	-2	3.0	-4	.	.
COc1ccc(C2C=CCN(C(=O)C3CCCCC3)CC(=O)N2Cc2ccc(F)cc2)cc1 (stereo not given)	8	21	10	11	.	.	.
O=S(=O)(Nc1cccnc1Cl)c1ccc(-c2ccccc2)cc1	81	1	0	89*	-8	3592	-1
CCOc1ccc(CCNS(=O)(=O)c2cnc[nH]2)cc1OCC	5	.	.	1.5	-19	.	-7
Cn1cc(/C=C2\SC(=S)N(N3CCOCC3)C2=O)c2ccccc21	6	7	8	2.6	-1	3973	2
Cc1c(CC(=O)NCC(=O)NCC(=O)O)c(=O)oc2c(C)c3oc4c(c3cc12)CCCC4	3	0	12	0.2	-11	4020	8
CCOC(=O)c1c(NC(=O)CSc2nnc(-c3cccnc3)o2)sc(C)c1C	1	.	.	-0.7	-25	4480	3
COc1ccc(-c2cc(=O)oc3c(C)c(OC(C)C(=O)NCc4ccccn4)ccc23)cc1 (stereo not given)	-1	.	.	-1.4	-6	5815	1
CN(C)S(=O)(=O)c1cccc(C(=O)NCCc2ccccc2)c1	-2	.	.	2.2	-67	5068	-1
CN(Cc1ccccc1)C(=O)C(=O)c1cn(CC(=O)N2CCCC2)c2ccccc12	6	14	11	0.4	-8	5867	9
O=C(NC(=S)Nc1ccc(F)c([N+](=O)[O-])c1)c1ccccc1F	2	7	6	7.5	-11	4885	7
CCN(c1nc(N)c(C(=O)N=C(N)N)nc1Cl)C(C)C	.	.	.	.	-2	5461	2
Cc1cc(-c2c(C)[nH]n(-c3ccc(Cl)cc3)c2=O)n[nH]1	15	0	1	20	-20	6653	6
O=C1CC(C(=O)Nc2ncccn2)C(c2ccccc2)O1 (stereo not given)	3	-54	33	6.7	-4	4156	-2
CCOC(=O)Cc1csc(NC(=O)COc2ccccc2OC)n1	7	14	2	2.3	-21	8166	2
O=C(NCCN1CCOCC1)C1CCC(CNS(=O)(=O)c2ccc(Cl)cc2)CC1 (stereo not given)	0	-2	1	-0.5	-26	6040	-1
C=CCNC(=S)Nc1sc2c(c1C(=O)OCC)CC(C(C)C)OC2 (stereo not given)	16	5	6	22	-10	22389*	6
COC(=O)CCC(=O)OC1(C)C(=O)C=C2C=C(C3CC3)N(C3CC3)C=C2C1=O (stereo not given)	-1	14	6	5.6	-13	2767	-3
CSc1nsc(/C=C/Nc2ccc(Cl)cc2)c1C#N	-7	12	13	-8.2	-15	3007	8
Cc1cc(=O)oc2cc(NC(=S)NNC(=O)c3c(Cl)cnn3C)ccc12	2	-9	7	2.6	-15	6411	-1
c1ccc(CNc2nc(-c3ccccc3)nc3ccccc23)cc1	-8	0	20	-17	-23	3571	-4
COCC(=O)Nc1cc(C)cn(Cc2c(F)cccc2Cl)c1=O	.	.	.	.	-17	3738	4
CN(CC(=O)Nc1ccccc1Cl)C(=O)CCc1nc2ccccc2c(=O)[nH]1	-3	7	-2	5.0	10	?	1
CN(C)/C=C(\C#N)C(=O)c1cccc(Oc2ccc(Br)cc2)c1	6	.	.	7.4	-3	3224	5

For reference, some entries already given.
SMILES	Sa ugtP lethal	Mtb hypoxia inh	Mtb hypoxia inh growth	Sa RN4220 lethal	PrP 5UTR inh	Autofluor counter	BJeLR lethal
O=S(=O)(Nc1cccnc1Cl)c1ccc(-c2ccccc2)cc1	81	1	0	89*	-8	3592	-1
CCOc1ccc(CCNS(=O)(=O)c2cnc[nH]2)cc1OCC	5	.	.	1.5	-19	.	-7
Cn1cc(/C=C2\SC(=S)N(N3CCOCC3)C2=O)c2ccccc21	6	7	8	2.6	-1	3973	2
Cc1c(CC(=O)NCC(=O)NCC(=O)O)c(=O)oc2c(C)c3oc4c(c3cc12)CCCC4	3	0	12	0.2	-11	4020	8
CCOC(=O)c1c(NC(=O)CSc2nnc(-c3cccnc3)o2)sc(C)c1C	1	.	.	-0.7	-25	4480	3
COc1ccc(-c2cc(=O)oc3c(C)c(OC(C)C(=O)NCc4ccccn4)ccc23)cc1 (stereo not given)	-1	.	.	-1.4	-6	5815	1
CN(C)S(=O)(=O)c1cccc(C(=O)NCCc2ccccc2)c1	-2	.	.	2.2	-67	5068	-1
CN(Cc1ccccc1)C(=O)C(=O)c1cn(CC(=O)N2CCCC2)c2ccccc12	6	14	11	0.4	-8	5867	9
O=C(NC(=S)Nc1ccc(F)c([N+](=O)[O-])c1)c1ccccc1F	2	7	6	7.5	-11	4885	7
CCN(c1nc(N)c(C(=O)N=C(N)N)nc1Cl)C(C)C	.	.	.	.	-2	5461	2
Cc1cc(-c2c(C)[nH]n(-c3ccc(Cl)cc3)c2=O)n[nH]1	15	0	1	20	-20	6653	6
O=C1CC(C(=O)Nc2ncccn2)C(c2ccccc2)O1 (stereo not given)	3	-54	33	6.7	-4	4156	-2
CCOC(=O)Cc1csc(NC(=O)COc2ccccc2OC)n1	7	14	2	2.3	-21	8166	2
O=C(NCCN1CCOCC1)C1CCC(CNS(=O)(=O)c2ccc(Cl)cc2)CC1 (stereo not given)	0	-2	1	-0.5	-26	6040	-1
C=CCNC(=S)Nc1sc2c(c1C(=O)OCC)CC(C(C)C)OC2 (stereo not given)	16	5	6	22	-10	22389*	6
COC(=O)CCC(=O)OC1(C)C(=O)C=C2C=C(C3CC3)N(C3CC3)C=C2C1=O (stereo not given)	-1	14	6	5.6	-13	2767	-3
CSc1nsc(/C=C/Nc2ccc(Cl)cc2)c1C#N	-7	12	13	-8.2	-15	3007	8
Cc1cc(=O)oc2cc(NC(=S)NNC(=O)c3c(Cl)cnn3C)ccc12	2	-9	7	2.6	-15	6411	-1

Following part.
SMILES	Sa ugtP lethal	Mtb hypoxia inh	Mtb hypoxia inh growth	Sa RN4220 lethal	PrP 5UTR inh	Autofluor counter	BJeLR lethal
COc1ccc(CN2CCN(C(=O)COc3cccc(C)c3)CC2)c(OC)c1	-6	1	6	-7.4	-12	2869	3
COc1ccc([N+](=O)[O-])cc1NC(=O)C1C2C=CC(C2)C1C(=O)O (stereo not given)	.	.	.	.	-33	3237	-2
COc1ccccc1OCCOc1ccc(C=Nn2cnnc2)cc1	4	-17	-16	4.9	.	.	.
O=C1c2ccccc2C(=O)N1CCOc1ccc(F)cc1	3	-7	3	3.8	-27	3505	-3
Cc1ccc(-c2noc(C3CCCN(S(=O)(=O)c4ccc5ccccc5c4)C3)n2)o1 (stereo not given)	30	20	8	-3.3	-10	8524	-10
O=C(c1ccccc1)C(CN1CCCC1)c1ccccc1 (stereo not given)	24	6	3	13	-18	2975	6
O=c1[nH]c(=O)n(Cc2ccco2)c2c1C(C(F)(F)F)(C(F)(F)F)N=C(c1ccco1)N2	-5	8	8	5.4	-17	24769*	.
COc1ccc2cc(C(=O)C3CCCN(Cc4cnc(C)s4)C3)ccc2c1 (stereo not given)	-3	9	12	7.0	-17	4610	1
CC(=NNC(=O)Cn1cc([N+](=O)[O-])cn1)c1ccco1	10	2	-13	3.6	.	.	.
O=C(COc1ccc(S(=O)(=O)NCc2ccccc2)cc1Cl)NCc1ccncc1	5	-2	9	2.5	-12	6416	-6
Cc1ccc(S(=O)(=O)NN=C/C=C/c2ccccc2)cc1	6	7	0	7.0	.	.	.
Cc1cccc(NC(=O)c2sc3nc(N4CCOCC4)c4c(c3c2N)CCCC4)c1	8	8	-4	12	-27	4357	4
CC1(C)C2CC[C@]3(C)C(CC=C4[C@@H]5C[C@@](C)(CO)[C@@H]6C[C@@]5(CC[C@]43C)C(=O)O6)[C@@]2(C)CC[C@@H]1O (stereo not given in full)	5	.	.	32	.	.	0
C=CCn1c(=O)c2ccccc2n2c(SCc3nnc(-c4ccccc4Br)o3)nnc12	1	5	5	7.0	-6	7844	-8
CCOc1ccc2c(c1)nc(SCC(=O)c1cccs1)n2C	6	10	1	6.4	-41	4527	-7
O=C(NC(=S)Nc1ccc(S(=O)(=O)Nc2nccs2)cc1)c1ccccc1	91*	15	18	14	-12	9443	-1
CCOC(=O)CN1C(=O)NC(c2ccccc2)C(C(=O)OC)=C1C (stereo not given)	2	-2	5	3.7	.	.	.
CCOCCCNC(=O)c1cn(CC)c2ccc(S(=O)(=O)N3CCOCC3)cc2c1=O	8	-2	-6	3.5	-15	4928	-3
CCOc1ccc(C=NNC(=O)c2c(C)n(C)c3ccc(OC)cc23)cc1	14	3	2	1.1	.	.	.
CCc1cccc2c(-c3csc(=NC)n3C)c[nH]c12	-2	-19	0	-1.6	-14	3637	4
CCCCNC(=O)COC(=O)c1ccc(NC(C)=O)cc1	8	8	7	1.5	-22	4465	8
CN1/C(=C\C(=O)CN2C(=O)NC3(CCCCCC3)C2=O)C(C)(C)c2ccccc21	6	.	.	-1.4	-15	3514	1
O=C(NC(Cc1ccc(O)cc1)C(=O)O)c1ccc(C(F)(F)F)cc1 (stereo not given)	2	9	9	5.4	.	.	.
CC(C)Oc1ccc(C(=O)Nc2ccc3c(c2)n(C)c(=O)n3C)cc1	19	12	7	0.8	-21	3617	-2
COc1ccc(CC(=O)OCC(=O)NCc2ccccc2Cl)cc1OC	1	18	2	0.3	-29	2472	-2

Sorted by formula weight (high to low): part of the list above
SMILES	Sa ugtP lethal	Mtb hypoxia inh	Mtb hypoxia inh growth	Sa RN4220 lethal	PrP 5UTR inh	Autofluor counter	BJeLR lethal
O=C(NC(=S)Nc1ccc(S(=O)(=O)Nc2nccs2)cc1)c1ccccc1	91*	15	18	14	-12	9443	-1
O=C(NC(Cc1ccc(O)cc1)C(=O)O)c1ccc(C(F)(F)F)cc1 (stereo not given)	2	9	9	5.4	.	.	.
O=C1c2ccccc2C(=O)N1CCOc1ccc(F)cc1	3	-7	3	3.8	-27	3505	-3

Continued:
SMILES	Sa ugtP lethal	Mtb hypoxia inh	Mtb hypoxia inh growth	Sa RN4220 lethal	PrP 5UTR inh	Autofluor counter	BJeLR lethal
COC(=O)COc1ccc2occ(C(C)=O)c2c1	0	3	6	2.8	-29	13039	6
COc1cc2c(=O)n(Cc3ccco3)c(=O)n(CC(=O)c3cccc(Br)c3)c2cc1OC	9	.	.	-1.4	.	.	2
CCN(CC)S(=O)(=O)c1ccc2c(c1)nc(SCc1nc3ccsc3c(=O)[nH]1)n2CC	2	-2	-6	8.7	-22	3960	-10
C=CCNC(=S)NN=Cc1ccc(C(F)(F)F)cc1	5	13	0	5.0	.	.	.
O=S1(=O)CC(O)C(N2CCC(c3ccccc3)CC2)C1 (stereo not given)	7	20	2	3.1	-21	11041	-2
O=C(COC(=O)c1ccc(S(=O)(=O)NCc2ccco2)cc1)Nc1ccccc1OC(F)F	4	.	.	4.3	-10	3950	-4
CCOc1ccccc1N/C=C(\C#N)c1nc2ccccc2n1C	-3	-1	0	1.5	-8	10266	3
CNCCC(Oc1ccccc1OC)c1ccccc1 (stereo not given)	5	4	6	0.3	-23	6098	5
Cn1c(SCC(=O)c2ccccc2)ncc(C(=O)Nc2ccc(F)cc2)c1=O	1	-3	-2	-1.9	-27	4390	13
O=C(COc1nc2ccccc2nc1N1CCOCC1)NCC(F)(F)F	4	12	6	4.1	-6	2079	7
CC(C)C(C)(C#N)NC(=O)CSc1nncn1-c1ccccc1 (stereo not given)	3	5	-4	1.3	-20	4565	7
Cc1oc(-c2ccccc2F)nc1CN1CCC(C(=O)NCc2cccs2)CC1	-3	0	3	-1.2	-12	21985*	-1
Cc1c(O)c2c3c(cccc3c1O)C(=O)N(c1ccccc1)C2=O	35	-2	5	39	-15	2557	15
CC(=O)N(C)c1ccc(NS(=O)(=O)Cc2ccccc2)cc1	0	4	2	1.2	-15	22151*	0
CN(C(=O)Nc1cnccc1C(F)(F)F)C1CCCCC1	-10	-1	9	0.4	-15	5771	-4
O=C(Nc1ccon1)c1cc2ccccc2oc1=O	-1	4	5	3.8	-25	20901*	2
Nc1ccc2ccccc2c1N=Nc1ccccc1	95*	20	8	8.0	-14	3441	.
CCCc1cc(=O)oc2cc(C)cc(OC(C)C(=O)NCc3ccccn3)c12 (stereo not given)	3	4	3	-1.2	-18	5188	5
CCc1nnc(NC(=O)CSc2nnc(Cc3cccn3C)n2C)s1	3	4	-4	-7.4	-5	4461	-3
